GALR2 agonist: GALR2 receptor agonists, primary screen, cell-based; Galanin receptor type 2 (Homo sapiens), O43603; GALR2-expressing cells, agonist activation read-out; activation, %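 (tested at 5 µM)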; 140,000 compounds, 0.48% hits; AID 803, 2007;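 active = above mean plus 3 SD of all compounds, about 5% in these data, not always enough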;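 also: 0% = vehicle buffer wells and 100% = reference agonist at full effect; tested in CHO reporter cells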
PKD1 inh: inhibitors of human PKD1 kinase, biochemical, fluorescence polarization | Serine/threonine-protein kinase D1 (Homo sapiens), Q15139 | PKD1 kinase fluorescence polarization assay | inhibition, %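 (about 10 µM by stock and volumes)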 | 200,000 compounds, 0.056% hits | AID 797, 2007;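 active = inhibition of 50% or more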;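 also: controls were vehicle for no effect and a reference inhibitor for full effect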
Target sequence (Q15139 whole entry, looked up): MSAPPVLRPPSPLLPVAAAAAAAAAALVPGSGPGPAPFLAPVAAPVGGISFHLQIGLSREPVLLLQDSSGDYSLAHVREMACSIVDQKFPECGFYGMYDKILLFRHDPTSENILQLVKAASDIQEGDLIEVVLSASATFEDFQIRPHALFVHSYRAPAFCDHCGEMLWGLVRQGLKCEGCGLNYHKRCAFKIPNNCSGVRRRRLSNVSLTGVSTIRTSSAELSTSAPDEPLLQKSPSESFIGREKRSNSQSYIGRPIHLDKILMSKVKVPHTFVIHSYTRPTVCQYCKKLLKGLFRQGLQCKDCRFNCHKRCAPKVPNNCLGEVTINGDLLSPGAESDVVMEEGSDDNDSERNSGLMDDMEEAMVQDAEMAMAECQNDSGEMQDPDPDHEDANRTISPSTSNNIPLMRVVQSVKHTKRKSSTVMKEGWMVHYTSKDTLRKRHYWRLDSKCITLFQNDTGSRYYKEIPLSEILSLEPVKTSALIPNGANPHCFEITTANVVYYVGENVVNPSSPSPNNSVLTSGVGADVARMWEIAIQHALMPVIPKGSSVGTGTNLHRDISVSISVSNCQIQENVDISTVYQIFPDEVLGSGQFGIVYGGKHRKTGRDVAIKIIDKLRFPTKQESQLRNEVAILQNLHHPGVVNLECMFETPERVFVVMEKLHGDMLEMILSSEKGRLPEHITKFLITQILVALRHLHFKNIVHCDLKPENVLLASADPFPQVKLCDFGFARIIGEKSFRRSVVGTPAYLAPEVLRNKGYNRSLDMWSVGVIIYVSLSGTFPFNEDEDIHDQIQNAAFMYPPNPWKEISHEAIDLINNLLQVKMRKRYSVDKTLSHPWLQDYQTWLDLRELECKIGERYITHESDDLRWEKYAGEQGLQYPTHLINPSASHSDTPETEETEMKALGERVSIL
Insulin prom inh: inhibitors of insulin promoter-driven GFP, primary screen, imaging, TRM-6 cells (human fetal islet line), eGFP reporter, cell count; reporter expression induced with tamoxifen; inhibition, % at 2 µM; 130,000 compounds, 0.9% hits;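 active = inhibition above the mean plus 3 SD, with well images judged a real hit on visual review, cut at about 60% in these data, passing the limit was not always enough; inconclusive = inhibition over the cutoff but images rejected on review; inactive = inhibition not above the cutoff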
RGS16-Gao: modulators of RGS16 binding to Galphao, primary screen, biochemical, human proteins, multiplexed bead flow cytometry | 220,000 compounds, 0.38% hits | binding response (% of control), % at 10 µM | bead-based flow cytometry RGS16-Galphao binding, fluorescence; actives lie on both sides | Regulator of G-protein signaling 16 (Homo sapiens) + Guanine nucleotide-binding protein …;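 active = below 25% or above 175%, edge rows of some plates excepted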;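 also: Galphao activated by GDP with aluminum fluoride before binding; 100% = wells without compound and 0% = beads without RGS; some results beyond the cut were filed as inactive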
HSV replic up: enhancers of HSV replication in host cells, fold increase, host cell viability | maximum fold increase | HSV replication augmentation in cells | 220,000 compounds, 0.005% hits;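 active = peak rise of 1.5-fold or more in the series; inconclusive = self-fluorescent or not available for retest; tested in PC3 cells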;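 also: first round at 10 µM; read as green reporter fluorescence; hits show the peak of a series up to 25 µM; 1 = signal of infected wells without compound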
Insulin prom inh cell count: second read-out of Insulin prom inh, no call of its own (marks repeat the call); normalized cell count, %; measured here: cell count, toxicity; reference of the scale not given here;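 cells exposed to compound for 48 h; stained nuclei by imaging scaled within each plate; lower means fewer cells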
HSV replic up primary fold: recorded beside HSV replic up, whose call it bears; fold increase; compound at 10 µM; measured here: primary screen fold increase 10 uM; tested in PC3 cells;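 GFP signal in the first replicate; 1 = infected wells without compound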
Starred values were filed as active, the others as inactive; i = inactive; ? = inconclusive; / = not tested or not shown.

mol,PKD1 inh,HSV replic up primary fold,GALR2 agonist,Insulin prom inh cell count,Insulin prom inh,HSV replic up,RGS16-Gao
Cc1cc(C)nc(SCc2cc(=O)c(OC(=O)c3ccco3)co2)n1,-12,1,-2.0,60,30,i,92
Cc1cc(=S)[nH]c2ccccc12,-1,/,-0.3,/,/,/,101
CCC(C)N(C(=O)COC(=O)/C=C/c1ccc(O)c(OC)c1)C1CCS(=O)(=O)C1 (centres undefined),-7,0.98,-1.6,103,-7,i,96
COc1ccc(NC(=O)c2c(OC)cccc2OC)c(OC)c1,-10,0.95,-2.1,97,30,i,105
CCOC(=O)c1cc(-c2ccccc2)sc1NC(=O)C(C)OC(=O)c1cccnc1Cl (centres undefined),-3,0.89,-0.3,129,36,i,110
Cc1ccc(NCc2nnc(SCC(=O)O)n2Cc2ccccc2)cc1Cl,-6,/,/,/,/,?,102
COc1ccc(CS(=O)(=O)c2nc(C)cc(C)c2S(C)(=O)=O)cc1,5,1,/,64,-81,i,100
O=C(Nc1ccc(Cl)c(Cl)c1)N1CC=C(c2ccccc2)CC1,5,1.1,-1.2,163,41,i,107
COc1ccc(Nc2nc(-c3ccc(OC)cc3)c(CCC(=O)O)s2)cc1,/,0.9,/,/,/,i,90
CCOC(=O)c1cc(NC(=O)Nc2ccccc2Cl)c(C)nc1C,2,0.88,/,/,/,i,101
CCOc1ccccc1NC(=O)c1ccc(NC(=O)c2ccco2)cc1,8,0.95,-1.7,118,44,i,83
CCC(=O)N1CCCc2cc(S(=O)(=O)N3CCN(C4CCCCC4)CC3)ccc21,/,1.1,/,/,/,i,98
O=C(NN=C1CCCC1)c1n[nH]c2c1CCC2,0,0.72,/,/,/,i,88
Cc1cccc(NC(=O)N2CCC(NC(=O)c3ccccc3C)CC2)c1,-14,0.86,-0.6,74,-6,i,108
CCSc1nnc(NC(=O)Cc2cc(OC)c(OC)c(OC)c2)s1,-1,0.77,/,69,-83,i,101
COc1cccc(CN(C)C(=O)c2ccc(S(=O)(=O)N3CCCC3)cc2)c1OC,-10,1.1,-2.5,137,-13,i,96
c1ccc(-c2ncnc3nc4n(c23)CCC4)cc1,-4,1,-1.2,141,-10,i,94
Oc1cc(Cc2ccccc2)cnc1CN1CCCCC1,-7,0.97,-2.1,85,-10,i,100
C/C(=N\Nc1cccc2cccnc12)c1ccc[nH]1,-6,1.1,/,/,/,i,101
Cc1nccn1-c1ccc(C(F)(F)F)cc1[N+](=O)[O-],-7,1.1,/,84*,73*,i,109
CN(C)S(=O)(=O)c1cccc(C(=O)OCC(=O)Nc2sccc2C(N)=O)c1,-9,0.86,-0.5,/,/,i,102
Cc1ccc(NC(=O)c2c(C(F)(F)F)nn(C)c2SCc2cccc(C(F)(F)F)c2)cc1C,3,0.95,-2.1,/,/,i,99
COC(=O)c1ccc2ccn(CC(=O)NC3CCCCC3)c2c1,-4,0.95,-1.9,95,14,i,102
COc1ccc(C(=O)C2CCCN(C(=O)c3ccoc3C)C2)cc1F (centres undefined),/,1,/,/,/,i,101
O=C(Nc1cc(F)c(Br)cc1F)c1ccc(Cl)cc1,/,1,/,/,/,i,97

Compound profiles, from the list above. Order of values: PKD1 inh | HSV replic up primary fold | GALR2 agonist | Insulin prom inh cell count | Insulin prom inh | HSV replic up | RGS16-Gao
COc1ccc(CS(=O)(=O)c2nc(C)cc(C)c2S(C)(=O)=O)cc1 in the list: 5 | 1 | / | 64 | -81 | i | 100
COc1ccc(Nc2nc(-c3ccc(OC)cc3)c(CCC(=O)O)s2)cc1 in the list: / | 0.9 | / | / | / | i | 90
CCSc1nnc(NC(=O)Cc2cc(OC)c(OC)c(OC)c2)s1 in the list: -1 | 0.77 | / | 69 | -83 | i | 101

Later entries.
mol,PKD1 inh,HSV replic up primary fold,GALR2 agonist,Insulin prom inh cell count,Insulin prom inh,HSV replic up,RGS16-Gao
COc1ccc(Cl)cc1C(=O)OCC(=O)NC(=O)c1cccn1C,-7,0.82,-2.4,71,-14,i,98
COc1cc2c(c(OC)c1OC)CCc1cnoc1-2,/,0.99,/,/,/,i,90
NC(=O)CSc1nc2cc([N+](=O)[O-])ccc2n1-c1cccc(C(F)(F)F)c1,1,0.86,-1.5,99,16,i,103
Cc1ccccc1NC(=O)c1sc2nc[nH]c(=O)c2c1C,11,1,-2.8,/,/,i,100
O=C(O)c1cccc(Cn2c(Cl)c(/C=N/NC(=O)c3ccccc3)sc2=O)c1,-6,0.97,-0.1,219,-13,i,96
O=C(Oc1cccc(Br)c1)c1cccnc1,-13,0.86,-0.1,220,-17,i,101
O=C(c1ccc2c(=O)n3c(nc2c1)CCCCC3)N1CCN(c2ccc(F)cc2)CC1,/,0.96,/,/,/,i,93
CCOC(=O)NC(=O)COC(=O)c1ccc(Sc2ncn[nH]2)c([N+](=O)[O-])c1,-9,0.95,/,62,27,i,91
O=c1c(F)cn(C2CCCO2)c(=O)n1Cc1c(F)cccc1Cl (centres undefined),0,1.1,-2.6,121,-85,i,99
Cc1nc2cc(Cl)c(Cl)cc2nc1C,-6,0.89,-1.5,102,23,i,109
Cc1c(Cl)cccc1NC(=S)N1CCN(S(=O)(=O)c2cccs2)CC1,2,0.92,/,110,-53,i,102
Cc1ccc2oc(=O)c3cnn(CC(=O)Nc4cc(-c5cccc(F)c5)no4)c3c2c1,3,0.93,-2.6,96,25,i,51
CC1CCCC2(C1)NC(=S)N(c1ccccc1)N2 (centres undefined),2,1.4,-0.6,64,40,i,104
CCOc1[nH]n(-c2ccc(Cl)cc2)c(=O)c1C=Nc1ccc(C)cc1,9,0.87,-0.9,98,0,i,84
O=C(/C=C/c1ccc(-c2ccccc2[N+](=O)[O-])o1)c1ccccc1,17,0.93,-0.9,/,/,i,94
Cc1[nH]n(-c2ccccc2)c(=O)c1N=Nc1ccccc1,-7,0.93,/,149,-33,i,104
COc1ccc(S(=O)(=O)N2c3ccccc3OCC2C(C)(C)C)cc1 (centres undefined),1,/,/,64,-43,/,170
COc1ccccc1CNC(=O)Cc1cc(=O)[nH]c(=O)[nH]1,-12,0.93,-1.1,89,-10,i,79
COc1ccc(C(=O)Nc2cccc(/C(C)=N/NC(=O)c3ccc([N+](=O)[O-])c(C)c3)c2)cc1OC,4,0.83,-1.1,148,23,i,104
CCCn1nnc(NC(=O)c2cccc(OCC(C)C)c2)n1,-14,0.91,-0.6,100,25,i,102
Cc1cc(C)c2nc(N3CCCN(C(=O)c4cnccn4)CC3)c(C#N)cc2c1,-2,0.88,-0.4,174,-27,i,92
CCN(CC)c1ccc2cc(C(=O)Nc3ccccn3)c(=O)oc2c1,-8,/,19*,44,3,?,102
CCc1nc(SCc2cccnc2)c(C#N)cc1C,-1,1.1,0.1,151,-1,i,99
Cc1cc(C)n(-c2ccccc2C#N)n1,/,0.91,/,/,/,i,91
O=C(NC1CCCc2ccccc21)c1ccccc1Cl (centres undefined),1,0.91,/,108,-37,i,99
Cc1ccccc1NC(=O)/C(=C/c1cccs1)NC(=O)c1ccco1,-13,1.1,0.0,122,-19,i,102
O=C(NCCO)/C(=C\c1ccc(Br)cc1)NC(=O)c1cccs1,3,0.95,-1.8,128,0,i,105
CCCn1nnc(NC(=S)NC(=O)/C=C/c2ccc(Cl)cc2)n1,/,0.8,/,/,/,i,100
Cn1c(N)c(S(=O)(=O)N2CCN(c3ccccc3)CC2)c(=O)n(C)c1=O,-5,1,/,115,0,i,103
O=C(COn1nnc2ccc(Cl)cc21)NC12CC3CC(CC(C3)C1)C2,-5,0.96,-2.6,96,-57,i,111
Cc1nnnn1/C(=C\c1ccccc1)C(=O)OCC(=O)NC(C)(C)C,-2,0.88,-1.3,127,-26,i,101
CCOC(=O)N1CCN(C(=O)COc2ccc3c(c2)C(=O)CC2(CCN(C(C)=O)CC2)O3)CC1,3,0.76,-2.6,/,/,i,105
O=C(Nc1ccc(Cl)cc1C(=O)NCC1CCCO1)c1ccco1 (centres undefined),3,0.9,-1.8,83*,75*,i,101
CCOC(=O)CSc1nnnn1-c1cc(OC)ccc1OC,1,1,-0.1,/,/,i,98
Cc1ccc(C(=O)Nc2ccc(C(=O)N/N=C/c3ccncc3)cc2)cc1,-3,0.94,/,184,38,i,115
CCn1c2ccccc2c2cc(NC(=O)CSc3nnc(-c4cccc(F)c4)o3)ccc21,4,0.8,-3.6,77,-11,i,107
Cc1ccc2c(c1)c1ncnc(N3CCOCC3)c1n2C,5,/,-0.8,156,6,/,97
COC(=O)c1ccc2nc(NC(=O)CN3C(=O)CCC3=O)sc2c1,-4,0.91,-3.2,/,/,i,59
Cc1c(C(=O)CN2CCSCC2)c2ccccc2n1C,-2,0.89,0.7,82,21,i,103
O=C(CSc1nc2ccccc2s1)NC(=O)NCc1ccco1,-5,0.96,0.1,/,/,i,100
C/C(=N/NS(=O)(=O)c1ccc(Cl)cc1)c1cccc(O)c1,1,0.88,-2.6,129,0,i,99
O=C(COc1cccc2ccccc12)N1CCN(c2ccccn2)CC1,-13,0.72,-3.4,79,-31,i,163
CCOc1ccc(C(=O)NC(C)(C)CC)cc1,5,0.85,/,/,/,i,101
CN(C)C(=O)CN1CCN(c2nc3nonc3nc2N2CCCCC2)CC1,0,1,/,/,/,i,99
Cc1cccc(CNc2ccc(C(CC(N)=O)NC(=O)c3cccc(Br)c3)cc2[N+](=O)[O-])c1 (centres undefined),/,0.87,/,/,/,i,107
Cc1cc(/C=N\NC(=O)CC(=O)NC2CCCCC2)c(C)n1-c1ccc(Cl)c(Cl)c1,-16,1.1,-2.1,107,-36,i,103
CC1CN(C(=O)c2cc3c(=O)n4ccccc4nc3s2)CC(C)O1 (centres undefined),-8,0.93,0.1,86,23,i,95
Cc1oc(C(C)(C)C)cc1C(=O)NCC(=O)NCC(=O)O,-1,1.1,-0.8,83,28,i,95
O=C(c1nnc(-c2ccc(Cl)cc2)o1)C1CCCC1,-2,0.99,/,64,0,i,106
Cc1onc(-c2ccccc2Cl)c1C(=O)N1CCCc2ccccc21,11,0.9,-0.7,99,64,i,100

The list continues.
mol,PKD1 inh,HSV replic up primary fold,GALR2 agonist,Insulin prom inh cell count,Insulin prom inh,HSV replic up,RGS16-Gao
O=C(O)CCSc1nnc(SCC(=O)NCC(F)(F)F)s1,-6,0.89,-0.8,126,-9,i,8.8*
Cn1nc(C(=O)Nc2ccc(S(=O)(=O)Nc3ncccn3)cc2)ccc1=O,/,0.93,/,/,/,i,102
Cc1ccc(C(=O)O)cc1N=Cc1cc(Br)cc(Br)c1O,2,/,-0.1,151,-36,?,108
C/C(=N\NC(=O)Cn1nc(C)c(Br)c1C)c1cccs1,-26,0.97,-2.4,83,10,i,102
CCn1c(=S)[nH]c2cc(Cl)ccc21,/,0.95,/,/,/,i,99
O=C(Nc1cccc2ccccc12)C1CCN(C(=O)NCc2ccccc2)CC1,-3,0.86,-0.8,109,44,i,104
Cc1cccc(-n2ccnc2SCC(=O)Nc2nccs2)c1,7,0.83,-0.6,/,/,i,139
CCOC(=O)C1=C(O)/C(=C/c2ccc(OCC(=O)O)c(OCC)c2)SC1=Nc1ccc(C)cc1,-1,1,/,121,45,i,103
CSc1nc2ccc(NS(=O)(=O)c3cccc(Cl)c3Cl)cc2s1,-8,1.1,-1.8,/,/,i,86
C/C(=N\NC(=O)c1ccn[nH]1)c1cn(C)nc1C,-2,1,-0.1,154,19,i,95
CCc1nnc(NC(=O)CCC(=O)NCc2ccc(OC)cc2)s1,/,0.97,/,/,/,i,105
C/C(=N\N1CCN(Cc2ccccc2)CC1)c1ccco1,5,0.99,/,/,/,i,95
O=C(c1ccco1)N1CCN=C1SCc1ccccc1F,3,0.8,-2.2,/,/,i,100
N#Cc1c(Cl)cccc1N1CCCC1,/,0.91,/,/,/,i,105
COc1ccc(-c2noc(CCC(=O)NC3CCN(Cc4ccccc4)CC3)n2)cc1,5,0.98,0.1,98,-61,i,228
O=C(CC1(O)C(=O)Nc2ccccc21)c1ccccc1 (centres undefined),-10,0.87,-0.8,/,/,i,111

Screening results deposited in PubChem by several laboratories.
